Screens from PubChem.
nsP2pro inh: CHIKV nsP2 protease inhibition, primary qHTS; Q8JUX6; FRET peptide cleavage, nsP2pro, fluorescence 1 h; Potency, µM (titrated, usually from 24.9 µM), without a hit: at the highest dose activity change, negative = inhibition, most hits filed as inhibitors; 31,000 compounds, 1.1% hits; active means well fitted inhibition curve with a large enough effect; inconclusive means small, poorly fitted or top-dose-only effect; inactive means no such curve, though single readings can be large or run the other way; also: nearly all actives have a fitted effect of over 60% in size; a reference inhibitor and vehicle were the controls
* = called active by the depositor; i = inactive; [ ] = remark or other dose. % is scaled to controls: 0 for no effect and ±100 for the full control effect; potency is read from the fitted curve at half-maximal effect.

| Structure | nsP2pro inh |
| --- | --- |
| FC(F)(F)c1ccc(CN2CC(N3CCc4ccccc43)C2)cc1 | -27% |
| COc1ccccc1Nc1sc(C(=O)c2ccc3c(c2)OCO3)c(N)c1S(=O)(=O)c1ccccc1 | -13% |
| C/C=C(/C)C1C=CC2CC(C)CC(C)C2C1/C(O)=C1\C(=O)NC(CC(C)(O)C(=O)O)C1=O (configuration not stated) | -14%[10 µM] |
| CCCCN(C)C(=O)c1c(C)sc2ccn(CCC)c(=O)c12 | -17% |
| Cc1ccccc1CN1CCCN(CC(=O)Nc2ccc3c(c2)OCCO3)S1(=O)=O | -16% |
| O=C(NCCNC(=O)c1ccccc1F)c1ccc(-c2cncnc2)cc1 | i |
| Cc1ccc(NS(=O)(=O)c2ccc3c(ccn3C)c2)cc1C | -2% |
| COc1cc(C(=O)NCCCn2ccnn2)ccc1OC1CCN(C(C)=O)CC1 | 3% |
| C=C[C@H]1CN2CC[C@H]1C[C@@H]2CNS(=O)(=O)c1ccc(Cl)cc1 | i |

Four structures already listed, arranged by SMILES length, ascending:
| Structure | nsP2pro inh |
| --- | --- |
| FC(F)(F)c1ccc(CN2CC(N3CCc4ccccc43)C2)cc1 | -27% |
| Cc1ccccc1CN1CCCN(CC(=O)Nc2ccc3c(c2)OCCO3)S1(=O)=O | -16% |
| C=C[C@H]1CN2CC[C@H]1C[C@@H]2CNS(=O)(=O)c1ccc(Cl)cc1 | i |
| C/C=C(/C)C1C=CC2CC(C)CC(C)C2C1/C(O)=C1\C(=O)NC(CC(C)(O)C(=O)O)C1=O (configuration not stated) | -14%[10 µM] |

A portion of the library. The share of hits here may be higher or lower than overall.
